D2 potentiator: potentiates the human D2 dopamine receptor allosterically | potentiation, % (test concentration not listed) | P14416 | DiscoveRx D2 beta-arrestin cells, luminescence, 90 min; 100% = 57 uM dopamine signal | 0.23% of 360,000 active; active = potentiation of 50% or more; inconclusive = 30% to 50%; inactive = 30% or less;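 further: compound concentration not given in the record; tested on top of an EC20 dose of dopamine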
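PathHunter beta-arrestin assay in DiscoveRx D2 cells. Compounds were added with an EC20 of dopamine (50 nM final) for 90 min at 37 deg C. Luminescence was read 1 h after detection reagent, with 57 uM dopamine as the EC100 control.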
Six1-Eya2 inh: blocks human Six1 binding to Eya2; AlphaScreen GST-Six1/His-Eya2 binding, biochemical; stronger effect = lower value; control for the full effect not named in the record; activity change, % (no concentration beside the values); 0.56% of 360,000 active; in the data active = activity change below about -65%; inconclusive = about -30% to -65%; inactive = above about -30%; further: on the % scale 0 is the no-effect control and ±100 the full control effect; compound concentration not given in the record
Target sequence (O00167 whole entry, looked up): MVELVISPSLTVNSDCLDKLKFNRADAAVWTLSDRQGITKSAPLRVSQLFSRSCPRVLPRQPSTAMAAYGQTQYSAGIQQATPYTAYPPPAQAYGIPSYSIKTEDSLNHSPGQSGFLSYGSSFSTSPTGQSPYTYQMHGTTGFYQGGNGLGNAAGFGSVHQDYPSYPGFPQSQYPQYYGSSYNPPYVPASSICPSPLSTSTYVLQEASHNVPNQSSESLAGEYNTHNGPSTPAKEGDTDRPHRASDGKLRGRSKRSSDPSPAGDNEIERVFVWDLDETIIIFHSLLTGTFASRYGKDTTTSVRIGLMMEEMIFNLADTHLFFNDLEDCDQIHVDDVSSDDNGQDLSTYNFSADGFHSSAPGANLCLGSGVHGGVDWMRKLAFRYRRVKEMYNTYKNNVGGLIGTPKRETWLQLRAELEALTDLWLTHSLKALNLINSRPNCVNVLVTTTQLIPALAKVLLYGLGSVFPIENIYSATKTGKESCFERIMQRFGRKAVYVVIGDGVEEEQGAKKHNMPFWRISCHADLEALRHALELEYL
Target sequence (Q15475 whole entry, looked up): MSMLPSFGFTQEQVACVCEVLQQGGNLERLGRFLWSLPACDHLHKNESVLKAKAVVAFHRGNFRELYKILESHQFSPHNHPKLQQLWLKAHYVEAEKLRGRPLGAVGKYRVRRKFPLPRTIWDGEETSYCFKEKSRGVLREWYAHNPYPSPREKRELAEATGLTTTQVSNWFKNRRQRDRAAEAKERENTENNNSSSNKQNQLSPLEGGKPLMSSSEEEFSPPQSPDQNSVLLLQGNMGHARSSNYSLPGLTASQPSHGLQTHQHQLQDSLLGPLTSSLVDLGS
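Homogeneous AlphaScreen proximity assay pairing GST-Six1 with His-tagged Eya2 (added as 5X mix: 250 nM and 500 nM) in 50 mM Tris pH 8.0, 300 mM NaCl, 1 mM TCEP. Glutathione donor and nickel acceptor beads; 1 h, 37 °C, dark.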
gsp antagonist: antagonizes gsp, the McCune-Albright syndrome mutation; 0.4% of 340,000 active; gsp-mutant cells, cAMP HTRF, 30 min; control for the full effect not named in the record; Potency, µM (series often up to 76.9 µM), for inactives: at the highest dose activity change, negative = inhibition, most hits filed as inhibitors; AID 624288; active = falling curve of any shape with a large fitted effect; inconclusive = falling curve, mostly with a smaller effect; inactive = flat or rising curve; cell line not stated here;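 further: intracellular cAMP measured with PDE inhibitor Ro 20-1724 present during compound exposure; potency means the concentration at half of the fitted maximal effect; on the % scale 0 is the no-effect control and ±100 the full control effect; nearly all actives have a fitted effect of over 65% in size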
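Cells, 2000/well, grown 16–24 h in DMEM 10% FBS with 0.5 mg/ml G418, then compounds plus […] (300 uM addition stock), 30 min at 37C. cAMP read by HTRF (cAMP-d2 and anti-cAMP antibody-K in lysis buffer) after 30 min RT.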
gsp agonist: gsp mutant agonism | gsp mutant cells, cAMP HTRF, 30 min; control for the full effect not named in the record | Potency, µM (highest dose often 76.9 µM), without a hit: at the highest dose activation (cAMP increase), usual class: activators | 0.13% of 340,000 active | AID 624287; active = well fitted activation curve with a large enough effect; inconclusive = small, poorly fitted or top-dose-only effect, or another doubt; inactive = no such curve, though single readings can be large or run the other way; cell line not stated here;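 further: phosphodiesterase inhibitor Ro 20-1724 added with compounds to block cAMP breakdown; potency means the concentration at half of the fitted maximal effect; nearly all actives have a fitted effect of over 60% in size; about a fifth of the inactives were tested at one dose only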
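Cells stably selected in G418 were plated at 2000/well, grown 16-24 hr, then given compounds in DMSO with the PDE inhibitor […] (300 uM solution added) for 30 min at 37C; cAMP was read by HTRF.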
CtBP-E1A inh: blocks the CtBP interaction with E1A; AlphaScreen GST-E1A/His-CtBP binding, 1536-well; stronger effect = lower value; control for the full effect not named in the record; activity change, % (test concentration not listed); 0.49% of 340,000 active; AID 651724; in the data active means activity change below about -65%; inconclusive means about -30% to -65%; inactive means above about -30%; further: on the % scale 0 is the no-effect control and ±100 the full control effect; compound concentration not given in the record
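Homogeneous bead-based format: GST-tagged E1A captured on glutathione donor beads, His-tagged CtBP on nickel acceptor beads; compounds precede bead addition by 2 h at 37 °C.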
D2 agonist: human D2 receptor agonism in beta-arrestin assay; P14416; DiscoveRx PathHunter D2 beta-arrestin, luminescence, 90 min; 100% = 57 uM dopamine signal; activation, % (test concentration not listed); 0.084% of 360,000 active; AID 624465; in the data active = activation above about 40%; inconclusive = about 15% to 40%; inactive = below about 15%; further: compound concentration not given in the record; the text of the record calls up to 30% inactive
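DiscoveRx PathHunter D2 beta-arrestin cells (2,100/well) attached overnight, then compound-stimulated 90 min at 37 C in HBSS/10 mM HEPES/0.1% Tween-20 buffer; beta-galactosidase complementation read by luminescence after 1 h at ambient temperature. Dopamine 57 uM final (EC100) as control.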
* marks the source's active call; other numbers are inactive results; [ ] = remark or other dose.

How did CCOc1ccccc1C(=O)n1nc(C)cc1C do in these assays?
D2 potentiator: 0; Six1-Eya2 inh: 8; gsp antagonist: 14%; gsp agonist: 28%; CtBP-E1A inh: 4; D2 agonist: -2.2

Results for COc1ccc(-c2cc(C(F)(F)F)nc(N3CCCCCC3)n2)cc1 ?
D2 potentiator: -9; Six1-Eya2 inh: 54; gsp antagonist: 6%; gsp agonist: -27%; CtBP-E1A inh: 36; D2 agonist: -4.9

Results for CSc1ccccc1NC(=O)c1noc(C)c1[N+](=O)[O-] ?
D2 potentiator: 0; Six1-Eya2 inh: 7; gsp antagonist: 0%; gsp agonist: 24%; D2 agonist: 3.4

How did CCN(CC(=O)Nc1ccc(NC(C)=O)cc1)CC(=O)Nc1cc(C)on1 do in these assays?
D2 potentiator: 9; Six1-Eya2 inh: -2; gsp antagonist: 6%; gsp agonist: 30%; CtBP-E1A inh: -7; D2 agonist: -1.8

What do the screens show for `CCOc1ccc(C(=O)NCC(c2ccco2)N2CCOCC2)cc1` (centres undefined)?
D2 potentiator: -4; Six1-Eya2 inh: 0; gsp antagonist: 7%; gsp agonist: -11%; CtBP-E1A inh: 2; D2 agonist: -0.4

What do the screens show for `N#CCCN(C(=O)COC(=O)c1ccc2c(c1)OCCO2)c1ccccc1`?
D2 potentiator: 0; Six1-Eya2 inh: 4; gsp antagonist: 10%; gsp agonist: -4%; CtBP-E1A inh: 0; D2 agonist: 1.8

What do the screens show for `Cc1cc(C)cc(CC(Cc2nc3ccccc3[nH]2)c2nc3ccccc3[nH]2)c1` (centres undefined)?
D2 potentiator: -65; Six1-Eya2 inh: -17; gsp antagonist: -21%; gsp agonist: inconclusive; CtBP-E1A inh: -3; D2 agonist: -3.6

How did O=C(c1ccco1)N1C2C=CC(C2)C1(C(F)(F)F)C(F)(F)F (centres undefined) do in these assays?
D2 potentiator: -1; Six1-Eya2 inh: -4; gsp antagonist: 8%; gsp agonist: -27%; CtBP-E1A inh: 9; D2 agonist: -2.0

What do the screens show for `Cc1ccccc1-n1c(C)cc(/C=C2/C(=N)N3C(c4ccccc4)=CSC3=NC2=O)c1C`?
D2 potentiator: -1; Six1-Eya2 inh: -2; gsp antagonist: -8%; gsp agonist: -34%[inhibitor]; CtBP-E1A inh: -8; D2 agonist: -2.0

Results for Cc1onc(-c2ccccc2)c1C(=O)N/N=C/c1cc2c(cc1Br)OCO2 ?
D2 potentiator: -5; Six1-Eya2 inh: -6; gsp antagonist: inconclusive; gsp agonist: 10%[15.4 µM]; CtBP-E1A inh: 0; D2 agonist: -0.9

What do the screens show for `O=C1C=C(c2ccccc2)C(=O)N1Nc1ccccc1`?
D2 potentiator: -13; Six1-Eya2 inh: -1; gsp antagonist: 16%; gsp agonist: -4%; CtBP-E1A inh: 0; D2 agonist: -4.9

What do the screens show for `COc1cc(NC(=S)Nc2ccc(Br)cc2Cl)c(OC)cc1Cl`?
D2 potentiator: -28; Six1-Eya2 inh: 4; gsp antagonist: -15%; gsp agonist: -37%; CtBP-E1A inh: 1; D2 agonist: -5.6

How did CCN(C(=O)c1ccco1)c1nnc(-c2cccnc2)s1 do in these assays?
D2 potentiator: 1; Six1-Eya2 inh: -6; gsp antagonist: -1%; gsp agonist: inconclusive; CtBP-E1A inh: 4; D2 agonist: -0.7

Results for O=C(CSc1nnc(-c2ccncc2)o1)NCc1ccccc1 ?
D2 potentiator: -5; Six1-Eya2 inh: 3; gsp antagonist: 1%; gsp agonist: -5%[15.4 µM]; CtBP-E1A inh: 1; D2 agonist: -4.7

What do the screens show for `Cc1ccc(C(=O)NCc2ccc3c(c2)OCO3)cc1`?
D2 potentiator: 0; Six1-Eya2 inh: 2; gsp antagonist: -3%; gsp agonist: -27%; D2 agonist: -4.3

Results for CCOc1ccccc1N(C)S(=O)(=O)c1ccc2c(c1)N(C(C)=O)CCO2 ?
D2 potentiator: -8; Six1-Eya2 inh: -1; gsp antagonist: -5%; gsp agonist: -3%; CtBP-E1A inh: -10; D2 agonist: 1.9

How did CCN(CC)c1ncnc2c1ncn2[C@H]1CN(Cc2ccc(Cl)cc2)C[C@@H](CO)O1 do in these assays?
D2 potentiator: -5; Six1-Eya2 inh: 1; CtBP-E1A inh: -6; D2 agonist: 6.8

How did CC(Sc1nc(N)cc(N)n1)C(=O)NCC1CCCO1 (centres undefined) do in these assays?
D2 potentiator: -5; Six1-Eya2 inh: 0; gsp antagonist: 18%; gsp agonist: -1%; CtBP-E1A inh: 6; D2 agonist: -9.5

What do the screens show for `CC(=O)OCC1CC(COC(C)=O)C(COC(C)=O)CC1COC(C)=O` (centres undefined)?
D2 potentiator: -15; Six1-Eya2 inh: 1; gsp antagonist: -6%; gsp agonist: -1%; CtBP-E1A inh: 1; D2 agonist: -5.2

Results for COc1cccc(-n2ccnc2SCC(=O)Nc2nccs2)c1 ?
D2 potentiator: -9; Six1-Eya2 inh: 12; gsp antagonist: 0%; gsp agonist: inconclusive; CtBP-E1A inh: -1; D2 agonist: -2.0

How did Nc1nc(SCC(=O)NCCN2CCOCC2)nc2sc3c(c12)CCC3 do in these assays?
D2 potentiator: -9; Six1-Eya2 inh: 7; gsp antagonist: -1%; gsp agonist: 15%[15.4 µM]; CtBP-E1A inh: -7; D2 agonist: -2.4

Results for COC(=O)C1C(=O)C2=C(CC1C)NC(C)=C(C(=O)OC1CCCCC1)C2c1ccc(N(C)C)cc1 (centres undefined) ?
D2 potentiator: -2; Six1-Eya2 inh: inconclusive; gsp antagonist: -7%; gsp agonist: inconclusive; CtBP-E1A inh: inconclusive; D2 agonist: -3.5

What do the screens show for `Nn1c(SCc2csc(-c3ccccc3)n2)nnc1-c1cccs1`?
D2 potentiator: -4; Six1-Eya2 inh: 2; gsp antagonist: -8%; gsp agonist: -5%; CtBP-E1A inh: -4; D2 agonist: -1.4

What do the screens show for `Cc1cc(=O)[nH]c(SCC(=O)Nc2ncc(S(=O)(=O)c3ccc([N+](=O)[O-])cc3)s2)n1`?
D2 potentiator: 24; Six1-Eya2 inh: -4; gsp antagonist: 5%; gsp agonist: 4%; CtBP-E1A inh: -4; D2 agonist: 9.2

How did COc1ccc(C(CNC(=O)CCNS(=O)(=O)c2ccccc2)N2CCOCC2)cc1 (centres undefined) do in these assays?
D2 potentiator: -22; Six1-Eya2 inh: 1; gsp agonist: 13%; CtBP-E1A inh: 2; D2 agonist: -1.6

Results for CCOc1ccc(NC(=O)c2cccc(NC3=NC4CS(=O)(=O)CC4S3)c2)cc1 (centres undefined) ?
D2 potentiator: -1; Six1-Eya2 inh: -1; gsp antagonist: 9%; gsp agonist: 10%; CtBP-E1A inh: 3; D2 agonist: -4.4

How did CCOc1ccc(OCC(=O)NCCS(=O)(=O)N2CCN(c3ccc(F)cc3)CC2)cc1 do in these assays?
D2 potentiator: 4; Six1-Eya2 inh: 0; gsp antagonist: -5%; gsp agonist: -3%; CtBP-E1A inh: 2; D2 agonist: 0.9

What do the screens show for `Cc1cc(OC(=O)c2ccccc2Br)c([N+](=O)[O-])c(=O)[nH]1`?
D2 potentiator: -2; Six1-Eya2 inh: 11; gsp antagonist: 4%; gsp agonist: 2%; CtBP-E1A inh: 3; D2 agonist: -6.1

What do the screens show for `O=C(N/N=C/c1cccc([N+](=O)[O-])c1)c1cc(-c2ccccc2)nc2ccccc12`?
D2 potentiator: -1; Six1-Eya2 inh: 4; gsp antagonist: -8%; gsp agonist: -31%[inhibitor]; D2 agonist: 11

What do the screens show for `Cc1ccnc2nc(C(=O)OCC(=O)NCCc3ccc(Cl)cc3)nn12`?
D2 potentiator: -8; Six1-Eya2 inh: 4; gsp antagonist: -8%; gsp agonist: 3%; CtBP-E1A inh: -18; D2 agonist: 2.8

How did COC(=O)c1nnn(-c2nonc2N)c1CN1CCc2ccccc21 do in these assays?
D2 potentiator: -20; Six1-Eya2 inh: -3; gsp antagonist: -5%[15.4 µM]; gsp agonist: 20%; CtBP-E1A inh: -11; D2 agonist: -0.3

How did Cc1ccc(C(=O)Nc2ccccc2C(=O)NCc2cccnc2)cc1 do in these assays?
D2 potentiator: -12; Six1-Eya2 inh: -1; gsp antagonist: 7%; gsp agonist: 7%; CtBP-E1A inh: 2; D2 agonist: -4.5

What do the screens show for `CCOC(=O)c1cnc2cc(-c3ccc(C)cc3)nn2c1-c1ccccc1`?
D2 potentiator: -8; Six1-Eya2 inh: 6; gsp antagonist: -5%; gsp agonist: -2%; CtBP-E1A inh: 9; D2 agonist: -1.8

How did CC(=O)c1cccc(N(C(=O)c2ccccn2)C(C(=O)NC2CCCCC2)c2ccccc2)c1 (centres undefined) do in these assays?
D2 potentiator: -3; Six1-Eya2 inh: -25; gsp antagonist: 1%; gsp agonist: -8%[15.4 µM]; CtBP-E1A inh: 0; D2 agonist: -5.9

How did COc1cccc(CNC(=O)CNC(=O)c2cccs2)c1 do in these assays?
D2 potentiator: -3; Six1-Eya2 inh: 3; gsp antagonist: 7%; gsp agonist: -19%; D2 agonist: -0.4

How did NNC(=S)NCc1ccco1 do in these assays?
D2 potentiator: 1; Six1-Eya2 inh: -6; gsp antagonist: -2%; gsp agonist: 0%[15.4 µM]; CtBP-E1A inh: 0; D2 agonist: -3.9

What do the screens show for `COC(=O)c1cccc(Nc2ccc([N+](=O)[O-])cn2)c1`?
D2 potentiator: -7; Six1-Eya2 inh: 10; gsp antagonist: 8%; gsp agonist: 0%[15.4 µM]; CtBP-E1A inh: -1; D2 agonist: -1.9

How did Cc1onc(-c2ccccc2)c1C(=O)NCc1ccccn1 do in these assays?
D2 potentiator: -16; Six1-Eya2 inh: 6; gsp antagonist: -11%; gsp agonist: -7%; CtBP-E1A inh: 7; D2 agonist: -1.4

How did CN(C)c1ccc(/C=N/NC2=NS(=O)(=O)c3ccccc32)cc1 do in these assays?
D2 potentiator: -5; Six1-Eya2 inh: -10; gsp antagonist: -27%; gsp agonist: 21%; CtBP-E1A inh: -28; D2 agonist: -3.6

How did Cc1nnc(NC(=O)COc2ccc3c(C)cc(=O)oc3c2)s1 do in these assays?
D2 potentiator: 2; Six1-Eya2 inh: 17; gsp antagonist: inconclusive; gsp agonist: -9%[15.4 µM]; CtBP-E1A inh: 1; D2 agonist: -5.6

Results for COc1ccc(-c2nnc(SCC(=O)NC(C)c3ccccc3)o2)cc1OC (centres undefined) ?
D2 potentiator: -11; Six1-Eya2 inh: 1; gsp antagonist: -4%; gsp agonist: -37%[inhibitor]; CtBP-E1A inh: -1; D2 agonist: -2.6

A section from further up, as a working copy:
How did Cc1nnc(NC(=O)COc2ccc3c(C)cc(=O)oc3c2)s1 do in these assays?
D2 potentiator: 2; Six1-Eya2 inh: 17; gsp antagonist: inconclusive; gsp agonist: -9%[15.4 µM]; CtBP-E1A inh: 1; D2 agonist: -5.6

Results for COc1ccc(-c2nnc(SCC(=O)NC(C)c3ccccc3)o2)cc1OC (centres undefined) ?
D2 potentiator: -11; Six1-Eya2 inh: 1; gsp antagonist: -4%; gsp agonist: -37%[inhibitor]; CtBP-E1A inh: -1; D2 agonist: -2.6
